# From PubChem
# Mtb H37Rv: Mycobacterium tuberculosis H37Rv growth inhibition, cell based, confirmatory dose response (AID 1949); most inactive calls were filed without a number and no value below 0 was filed; inhibition, % at 10 µg/mL, or IC50 in µg/mL where a hit was titrated; 100,000 compounds, 1.6% hits;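 active = confirmed in a dose series; inconclusive = about 50% or more but not retested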;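 also: bacteria grown 7 days with compound before Alamar blue readout; 0% = untreated bacteria and 100% = reference antibiotic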
# Starred values were filed as active, the others as inactive; i = inactive; ? = inconclusive. These rows are one share of the data; rates above refer to the full screens.
SMILES,Mtb H37Rv
CCOC(=O)c1c(NC(=S)Nc2cccc(C)c2)sc2c1CCCC2,i
O=C(c1ccc(Br)cc1)N1CCN(c2ccc([N+](=O)[O-])c(NCc3ccccc3)c2)CC1,i
COc1ccc(-c2c(C)nn3c(C(F)(F)F)cc(C)nc23)cc1,i
O=C1NCCCc2nc(Oc3ccccc3)sc21,i
COC(=O)c1ccc(NC(=O)Nc2ccc(C)cc2)cc1,0%
Cc1oc(C(C)(C)C)cc1C(=O)Nc1cccc(OC(C)C)c1,4%
COc1cccc(-c2ccc3c(N)c(C(=O)Nc4nnc(SCC(C)C)s4)sc3n2)c1,0%
Cc1c(NC(=O)CC(O)(C(F)(F)F)C(F)(F)F)c(=O)n(-c2ccccc2)n1C,i
CCn1c(SCC(=O)Nc2ncc(C)s2)nnc1C(NC(=O)c1ccc(C)cc1)C(C)C (stereo not drawn),i
O=C(O)c1ccc(COc2ccc(CO)cc2Cl)cc1,i
COc1c(Cl)cc(Cl)cc1C(=O)NC(=S)Nc1ccc2oc(=O)ccc2c1,i
COc1cccc(C=O)c1OCc1ccccc1C,16%
CC(=O)Nc1cccc(-c2nnc(SCc3cccc(Br)c3)n2C)c1,i
COC(=O)c1cc(NC(=O)c2ccc(-c3ccccc3)cc2)ccc1Cl,i
CC(C)(C)C1CCC(OC(=O)CN2CCCC2)CC1 (stereo not drawn),i
O=C(CSc1nc2ccccc2[nH]1)Nc1nccs1,i
CCC(=O)Nc1ccc(-c2nn3c(C)nnc3s2)cc1,i
O=C(NC(=S)Nc1nc2c(Cl)c(Cl)ccc2s1)c1ccccc1Br,1%
Cc1ccccc1-n1c(=S)[nH]c2nc3c(cc2c1=O)CCCC3,i
COc1ccc(-c2cc(C(=O)N/N=C/C=C/c3ccccc3OC)[nH]n2)cc1,<0.1µg/mL*
CCN(CC)c1ccc(NC(=O)c2cc(I)ccc2Cl)c(C)c1,i
COCc1nnc(NC(=O)Cc2ccc(Br)cc2)s1,i
CCOc1cc(CNCC2CCCO2)cc(Br)c1OCC(N)=O (stereo not drawn),i
Cc1ccccc1-c1nnc(SCc2ccc(F)cc2)o1,1%
CN(Cc1ccccc1)S(=O)(=O)c1ccc(NC(=O)COc2ccc([N+](=O)[O-])cc2)cc1,i

# Rewritten as labelled records: 2 of the compounds above
> COCc1nnc(NC(=O)Cc2ccc(Br)cc2)s1
  Mtb H37Rv: i
> CCOc1cc(CNCC2CCCO2)cc(Br)c1OCC(N)=O (stereo not drawn)
  Mtb H37Rv: i

# The list continues.
SMILES,Mtb H37Rv
COc1ccc(N2CCN(C(=S)Nc3ccc(C)cc3C)CC2)cc1,2%
O=S(=O)(NC(=S)Nc1ccccc1)c1ccc(F)cc1,i
Cc1ccc([N+](=O)[O-])cc1NC(=O)COc1ccc(Cl)cc1Br,i
Clc1ccccc1C1CC(c2cccs2)n2ncnc2N1 (stereo not drawn),13%
S=C(NCCc1ccccc1)N1CCN(c2ncccn2)CC1,i
Cc1noc(NS(=O)(=O)c2ccc(NC(=O)CSc3nc4c(cc3C#N)CCCC4)cc2)c1C,i
CC(C)OC(=O)c1cccc(NC(=O)CSc2nnc(CNC(=O)c3cccc([N+](=O)[O-])c3)n2C)c1,i
CCCCC(=O)Nc1cccc(NC(=O)c2ccc(F)cc2)c1,4%
COc1ccccc1NS(=O)(=O)c1ccc2[nH]c(=O)[nH]c2c1,4%
CN1CCC(NC(=O)Nc2cccc([N+](=O)[O-])c2)CC1,i
COc1cc(Cl)c(C)cc1NC(=O)COc1ccc(Br)cc1C,i
CCCc1nc2ccccc2n1CC(O)COc1cc(C)ccc1Cl (stereo not drawn),?
COc1ccc(NC(=S)N2CCN(S(=O)(=O)c3ccc(Cl)cc3)CC2)cc1OC,i
Cc1cc([N+](=O)[O-])c(N2CCCCC2)cc1N,i
COc1c(C)cc(Br)cc1C(=O)Nc1nc2c(Cl)cccc2s1,1%
COc1ccc(-c2nn(-c3ccccc3)cc2/C=c2\sc3nc(-c4ccc(Cl)cc4)nn3c2=O)cc1,i
Cc1cc(C(=O)Nc2cnccn2)cs1,i
O=C1CC(NCc2ccccc2)C(=O)N1Cc1ccccc1 (stereo not drawn),4%
CC1=CC(C)(C)N2C(=O)C3(Nc4ccccc4S3)c3cc(C)cc1c32 (stereo not drawn),17µg/mL*
CC(=O)Nc1cccc(C(=O)OCc2c(Cl)cccc2Cl)c1,0%
CC1=C(C(=O)Nc2cccnc2)C(c2ccc3c(c2)OCO3)C2=C(CCCC2=O)N1 (stereo not drawn),i
O=C(c1ccc(F)cc1)N1CCN(c2ccc([N+](=O)[O-])c(N3CCN(c4ccccc4)CC3)c2)CC1,i
Cc1ccccc1CNS(=O)(=O)c1cc(Cl)ccc1Cl,i
CCC(CC)C(=O)NCCc1ccc(S(N)(=O)=O)cc1,i
O=C(NCC1CCCO1)c1ccc(NC(=O)c2cccs2)cc1 (stereo not drawn),i
# Remaining list, next part:
SMILES,Mtb H37Rv
CCOc1ccc(C(=O)NC(=S)Nc2ccc(C(=O)O)c(Cl)c2)cc1[N+](=O)[O-],i
CCC(Sc1ccc(C(=O)O)cc1)C(=O)O (stereo not drawn),1%
CCc1ccc(OC(=O)COc2ccc([N+](=O)[O-])cc2)c(Br)c1,i
Brc1ccccc1CN1CCN(Cc2ccco2)CC1,i
CN(c1ccc(C(=O)Nc2ccc(CC#N)cc2)cc1)S(C)(=O)=O,i
COC(=O)C1=C(C)N(C)C(=S)NC1c1ccc(OC(=O)c2ccccc2)cc1 (stereo not drawn),i
CCN(CC)C(=O)CN(c1ccc(I)cc1)S(C)(=O)=O,i
COc1ccc(C(=O)Nc2sc3c(c2C(N)=O)CCCCC3)cc1,4%
Cc1cc(=O)[nH]c(NCc2ccccc2)n1,i
C=CCn1c(SCC(N)=O)nc(C)cc1=O,i
O=C(CSc1nnc(CCCOc2ccc(Cl)cc2Cl)o1)Nc1cc(C(F)(F)F)ccc1Cl,15%
O=C(CN(c1cc(Cl)cc(Cl)c1)S(=O)(=O)c1ccccc1)Nc1ccc(F)cc1F,3%
CC(C)C1=NN2C(=N)/C(=C/c3cc(Cl)ccc3OCc3ccccc3)C(=O)N=C2S1,2%
Cc1cc(-c2nn3c(C)nnc3s2)ccc1N,i
Ic1ccccc1-c1nc(-c2ccncc2)no1,i
Cc1ccc(C(=O)CSc2nsc(SCC(=O)c3ccc(C)cc3)c2C#N)cc1,i
CCOC(=O)c1sc(NC(=O)CSc2nnc(-c3ccccc3)o2)c(C#N)c1C,i
CC1CCN(S(=O)(=O)c2cccc(C(=O)NNC(=O)c3ccc(Br)cc3)c2)CC1,i
Cc1cc(C(F)F)n2nc(C(=O)Nc3cc(C)on3)nc2n1,i
CCOc1ccccc1N(CC(=O)N1CCOCC1)S(C)(=O)=O,i
O=C(CSc1nc2ccccc2c(=O)n1-c1ccccc1)N1CCCCC1,1%
COCCn1c(SCC(=O)Nc2ccc(Br)cc2F)nnc1-c1ccc(Cl)cc1,i
Cc1cc(NC(=O)C2CC3CCC2C3)no1 (stereo not drawn),i
O=C(Nc1ccccc1[N+](=O)[O-])c1ccc(NC(=O)C(c2ccccc2)c2ccccc2)cc1,i
CCCCc1ccc(NC(=S)N2CCC(C(=O)OCC)CC2)cc1,i
# Following part
SMILES,Mtb H37Rv
CC(=O)c1ccc(NC(=S)NC(NC(=O)c2ccccc2Br)C(Cl)(Cl)Cl)cc1 (stereo not drawn),2%
CCOc1cc(Br)ccc1S(=O)(=O)N1CC(C)OC(C)C1 (stereo not drawn),i
CCOC(=O)c1cc(Cc2ccccc2)sc1NC(=S)NNC(=O)c1ccoc1C,i
CC(C)(C)c1cc(C(=O)NCc2ccccc2)ccn1,i
COc1cccc(NS(=O)(=O)c2ccccc2C#N)c1,i
CCOC(=O)c1cccc(NC(=O)CCCc2ccc(OC)c(C)c2)c1,28%
CCOc1ccc(NC(=O)CSc2nnc(COc3ccc4c(c3)CCCC4)n2C)cc1,i
CCn1cc(C(C)NC(=S)Nc2ccc(OC)cc2OC)c(C)n1 (stereo not drawn),i
O=C(CSc1ccc2ccccc2n1)N1CCN(c2nnnn2-c2ccccc2)CC1,0%
Cc1cccc(C)c1OCc1nnc(SCC(=O)Nc2ccccc2[N+](=O)[O-])o1,i
O=C(NC(=S)Nc1ccc(S(=O)(=O)N2CCCC2)cc1)C1CC1,i
Cc1ccc(C(=O)Nc2cccc(NC(=O)c3cccc(Cl)c3)c2)c(C)c1,48%
N/C(Cc1ccc(Cl)cc1)=N\OC(=O)COc1ccc(Br)cc1,3%
C=CCNc1oc(/C=C/c2ccccc2)nc1C#N,42%
O=C(NC1=NCCS1)c1cc2c(s1)CCCC2,i
Cc1ccc(SCC(=O)Nc2ccccc2C(N)=O)cc1,i
COc1ccc(CNC(=O)c2ccc(C)o2)cc1,3%
COc1ccc(/C(N)=N/OC(=O)c2cc(OC)c(OC)cc2OC)cc1OC,9%
CC(C)(C)c1ccc(OCCCNCc2ccccc2)cc1,4.8µg/mL*
Cc1cc(NC(=O)C2c3ccccc3Oc3ccccc32)no1,1%
COc1ccccc1NC(=O)c1ccc(COc2ccc(Cl)cc2Cl)cc1,i
O=C(Nc1ccccc1C(F)(F)F)C(=O)N1CCCCC1,i
Cc1cc(C(C)c2ccccc2)c(O)c(CN2CCOCC2)c1C (stereo not drawn),1%
Cc1oc(-c2ccc(F)cc2)cc1-c1nn2c(Cc3ccccc3)nnc2s1,i
Cc1cc(C)c(C#N)c(SCC(=O)Nc2ccccc2C(F)(F)F)n1,1%

# Reprinted from the results shown, eight compounds:
SMILES,Mtb H37Rv
COc1cccc(NS(=O)(=O)c2ccccc2C#N)c1,i
CCOC(=O)c1cccc(NC(=O)CCCc2ccc(OC)c(C)c2)c1,28%
CCOc1ccc(NC(=O)CSc2nnc(COc3ccc4c(c3)CCCC4)n2C)cc1,i
CCn1cc(C(C)NC(=S)Nc2ccc(OC)cc2OC)c(C)n1 (stereo not drawn),i
O=C(CSc1ccc2ccccc2n1)N1CCN(c2nnnn2-c2ccccc2)CC1,0%
Cc1cccc(C)c1OCc1nnc(SCC(=O)Nc2ccccc2[N+](=O)[O-])o1,i
O=C(NC(=S)Nc1ccc(S(=O)(=O)N2CCCC2)cc1)C1CC1,i
Cc1ccc(C(=O)Nc2cccc(NC(=O)c3cccc(Cl)c3)c2)c(C)c1,48%

# Entries listed so far that contain a furan ring, fused or not (5):
SMILES,Mtb H37Rv
Cc1oc(C(C)(C)C)cc1C(=O)Nc1cccc(OC(C)C)c1,4%
Brc1ccccc1CN1CCN(Cc2ccco2)CC1,i
CCOC(=O)c1cc(Cc2ccccc2)sc1NC(=S)NNC(=O)c1ccoc1C,i
COc1ccc(CNC(=O)c2ccc(C)o2)cc1,3%
Cc1oc(-c2ccc(F)cc2)cc1-c1nn2c(Cc3ccccc3)nnc2s1,i

# Remaining list, next part
SMILES,Mtb H37Rv
Cc1nc(N2C(=O)C(O)=C(C(=O)c3cccs3)C2c2cccc([N+](=O)[O-])c2)sc1C (stereo not drawn),i
Cc1ccc(C(=O)NC(=S)Nc2ccc(Cl)c(C(=O)O)c2)cc1[N+](=O)[O-],i
CC(C)COc1cccc(C(=O)NC2C3CC4CC(C3)CC2C4)c1 (stereo not drawn),i
CCCC1NC(=O)NC(C)=C1C(=O)OCC (stereo not drawn),i
COc1ccc(NC(=O)c2c(Cl)cccc2Cl)cc1Cl,0%
CNC(=O)C1CCCN(S(C)(=O)=O)C1 (stereo not drawn),i
CC(C)c1ccc(NC(=O)CSc2nnc(-c3ccc(Cl)c(Cl)c3)n2C)cc1,i
CCCc1cc(C(=O)OCC)c(NC(=O)CCCC(=O)O)s1,i
CCc1c(C)sc(NC(=O)Cc2ccc(OC)cc2)c1C(=O)OC,16%
CC1CCc2c(sc(NC(=S)NC(=O)c3ccc4c(c3)OCO4)c2C#N)C1 (stereo not drawn),i
Cc1ccc2oc(C(=O)Nc3sc4c(c3C(=O)NCc3ccco3)CCCC4)c(C)c2c1,i
CC1(C)CC(=O)c2c(C(=O)O)coc2C1,3%
COC(=O)c1ccc(OC(=O)c2ccc(F)cc2)c(OC)c1,i
O=C(CC(C(=O)O)N1CCOCC1)Nc1ccc(Cl)cc1 (stereo not drawn),i
COc1ccc(C(C)C)cc1S(=O)(=O)NCCc1c(C)[nH]c2c(Cl)cccc12,1%
CN1CCC(OC(=O)c2ccccc2Cl)CC1,0%
Cc1ccc(F)cc1NC(=O)NC1CCCCC1,i
COc1ccc(C)cc1NC(=O)NNC(=O)c1ccoc1C,i
COc1ccc(NS(=O)(=O)c2ccc(NC(=O)c3nc4nc(C)cc(C(F)F)n4n3)cc2)cc1,i
CCN1CCN(C(=S)Nc2ccccc2)CC1,i
Cc1ccc(CSc2n[nH]c(=O)[nH]c2=O)cc1,i
Cc1ccc(NC(=O)CCCn2cc([N+](=O)[O-])cn2)cc1C,50%
C=C(C)Cn1c(C2CC2)nc2ccccc21,i
CCn1c(C)c2c(C)nn3cc(C)cc3c2c1C,6%
C=CCn1c(SCC(=O)NCCc2ccccc2)nnc1C(C)NC(=O)c1ccccc1 (stereo not drawn),i
# Carrying on:
SMILES,Mtb H37Rv
O=C(O)c1ccc(NC(=S)Nc2ccc(Br)cc2Cl)cc1,i
COc1cc(C)c(Br)cc1S(=O)(=O)NCc1ccco1,i
CC1=C(C(=O)OC2CCCC2)C(c2cccc(O)c2)NC(=O)N1 (stereo not drawn),i
O=S1(=O)N=C(Nc2cccc3c(O)cccc23)c2ccccc21,i
COc1cc(Br)cc2cc(C(=O)Nc3c(C)cccc3C)c(=O)oc12,8%
Cc1ccc(OCCSc2nc(N)cc(N)n2)cc1,i
CCOC(=O)c1ccccc1NC(=O)CCC(=O)Nc1ccccc1C(=O)OCC,i
O=C(Nc1cccc(-c2nc3cc4ccccc4cc3[nH]2)c1)c1ccco1,i
CC(Sc1nc(=O)cc(N)n1-c1ccccc1)C(=O)Nc1ccccc1 (stereo not drawn),i
COc1ccc(-c2cc(C(=O)Nc3ccccc3C(F)(F)F)c3ccccc3n2)cc1OC,i
COC(=O)c1ccc(N2CCCCC2)c(N)c1,i
O=C(N1CCN(c2ccccn2)CC1)C(Cl)(Cl)Cl,1%
COc1ccc(CCC(=O)NCCC2=CCCCC2)cc1,3%
CCOc1ccccc1NS(=O)(=O)c1ccc(CC(C)C)cc1,i
NS(=O)(=O)c1ccc(NC(=S)NC(=O)C(c2ccccc2)c2ccccc2)cc1,i
